From PubChem BioAssay
rRNA inh HTS – inhibitors of bacterial rRNA selective over humanized ribosomes; E. coli WT GFP vs humanized-ribosome RFP mutants, fluorescence, 24 h; hits give low values; DMSO median 0, no signal -100; GFP signal change (wild-type ribosome), % (no concentration beside the values); hit rate 1.6% among 350,000;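 active means significant combined selectivity score with lowered wild-type GFP, culture density cut under 30%, mutant RFP and density less affected; inactive means any of these conditions unmet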; further: one replicate is shown; some compounds called inactive have numbers as strong as hits
Beta cell apopt – blocks beta cell apoptosis | hit rate 0.8% among 300,000 | protection from apoptosis, % (concentration not given with the values) | INS-1E cytokine-induced death, ATP luminescence, 48 h; percent of positive-control rescue, neutral wells zero;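 active means all replicates at 75% or more, or half of them and the mean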;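 further: 0% = cytokine-treated negative control wells and 100% = positive control rescue; higher means more ATP so stronger rescue from cytokine killing; wells of about 40 µL received 100 nL stock; the first replicate is given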
ALR inh – human ALR oxidase inhibition via reduced H2O2; P55789; purified ALR, DTT oxidation, H2O2 HRP-luminol luminescence; inhibition, % (test concentration not listed); hit rate 3.8% among 290,000; AID 485317;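 active means mean and each replicate at 75% or more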;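 further: stock transfer was 7.5 nL into about 7.5 µL; 0% = neutral wells and 100% = wells with inactivated enzyme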
Target sequence (P55789 whole entry, looked up): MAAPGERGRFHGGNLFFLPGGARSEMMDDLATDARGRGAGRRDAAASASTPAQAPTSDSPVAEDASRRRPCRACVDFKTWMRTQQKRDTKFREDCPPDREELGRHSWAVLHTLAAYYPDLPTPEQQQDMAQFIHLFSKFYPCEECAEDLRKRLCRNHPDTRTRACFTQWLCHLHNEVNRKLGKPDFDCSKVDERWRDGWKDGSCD
Calb FLC – affects C. albicans growth with fluconazole. C. albicans CaCi-2 (fluconazole-resistant clinical isolate) + fluconazole, Alamar Blue growth, 48 h. AID 1979. hit rate 0.57% among 300,000. growth inhibition, % (test concentration not listed);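 active means most replicates above 75%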;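 further: all wells also contain fluconazole at 8 µg/ml as a sub-toxic cotreatment; 0% = median of DMSO wells and 100% = median of geldanamycin control wells; wells of about 8 µL received 7.5 nL stock; the first replicate is given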
RanGTP-Imp inh – disruptors of Ran-importin-beta complex formation – biochemical, FRET, CFP-Ran, YFP-importin-beta, homogeneous, primary screen; cell-free CFP-Ran/YFP-importin-beta FRET ratio; inhibition, % (concentration not given with the values); hit rate 1.1% among 300,000; AID 2216;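 active means most replicates above 15%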;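 further: 0% = DMSO wells and 100% = Ran loaded with GDP instead of GTP; wells of about 40 µL received 100 nL stock; the first replicate is given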
T cruzi inh – T. cruzi replication inhibition | AID 1885 | inhibition, % (concentration not given with the values) | T. cruzi beta-gal in NIH3T3, luminescence, 90 h | hit rate 1.4% among 300,000;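 active means mean inhibition across valid replicates above about 55%, limit read from the data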;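 further: signal also drops with host cell toxicity which is not excluded here; 0% = plate median of DMSO wells and 100% = zero luminescence signal; higher percent means less beta-gal luminescence so fewer parasites; stock transfer was 50 nL into about 50 µL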
AF4-AF9 inh – MLL-AF4/AF9 protein interaction inhibition. P42568. AlphaScreen, biotin-AF4 peptide binding to FLAG-AF9. inhibition, % at 10 µM. hit rate 0.47% among 350,000;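 active means every replicate reaching a set inhibition limit, whatever the replicate mean, cut at about 25% in these data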;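 further: 0% = plate neutral control median and 100% = total signal loss; the record names both 10 and 1 µM as test concentration; the first replicate is given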
Target sequence (P42568 whole entry, looked up): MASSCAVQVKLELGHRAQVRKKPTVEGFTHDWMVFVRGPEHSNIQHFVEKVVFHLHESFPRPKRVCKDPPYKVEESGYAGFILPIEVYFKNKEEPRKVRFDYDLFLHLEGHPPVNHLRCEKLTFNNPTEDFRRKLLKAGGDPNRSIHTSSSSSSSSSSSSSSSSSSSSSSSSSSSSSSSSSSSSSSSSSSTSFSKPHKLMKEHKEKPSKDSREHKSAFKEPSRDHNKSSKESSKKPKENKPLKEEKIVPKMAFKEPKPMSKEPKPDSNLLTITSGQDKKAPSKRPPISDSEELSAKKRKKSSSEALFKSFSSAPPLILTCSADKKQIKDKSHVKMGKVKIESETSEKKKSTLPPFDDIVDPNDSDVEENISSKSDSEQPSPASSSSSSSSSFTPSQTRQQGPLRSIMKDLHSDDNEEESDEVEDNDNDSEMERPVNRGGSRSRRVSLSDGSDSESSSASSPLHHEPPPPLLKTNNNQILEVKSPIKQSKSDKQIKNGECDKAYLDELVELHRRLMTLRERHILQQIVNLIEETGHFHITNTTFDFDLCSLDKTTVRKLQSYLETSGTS
FGF22 binding – shifts melting point of recombinant human FGF22; calls only at 9.99 µM; hit rate 1.5% among 340,000; recombinant FGF22 thermal shift, SYPRO orange fluorescence; percent of sucrose octasulfate shift, DMSO zero; AID 651658; Q9HCT0;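 active means melting point raised past a set limit in the mean and every replicate; three in four hits are not shown here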
Target sequence (Q9HCT0 whole entry, looked up): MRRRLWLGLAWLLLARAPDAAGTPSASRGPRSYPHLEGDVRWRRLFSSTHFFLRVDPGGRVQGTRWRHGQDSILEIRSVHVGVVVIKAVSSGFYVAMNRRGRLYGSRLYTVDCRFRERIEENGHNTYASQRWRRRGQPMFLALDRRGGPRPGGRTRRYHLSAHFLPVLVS
rRNA inh HTS OD600 – also measured in rRNA inh HTS; calls as there; OD600 change, %; measured here: OD600 growth;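 optical density of the mix in the first replicate; 0 = DMSO median and -100 = no signal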
rRNA inh HTS RFP – recorded beside rRNA inh HTS, whose call it bears; RFP signal change, %; measured here: RFP humanized mutant strains;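 first replicate; 0 = DMSO median and -100 = no signal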
* marks the source's active call; other numbers are inactive results; i = inactive; nt = not tested or not shown. These rows are one share of the data. The share of hits here may be higher or lower than overall.

SMILES | rRNA inh HTS | rRNA inh HTS OD600 | rRNA inh HTS RFP | Beta cell apopt | ALR inh | Calb FLC | RanGTP-Imp inh | T cruzi inh | AF4-AF9 inh | FGF22 binding
O=C(CN1CCCCC1)N1N=C(c2cccs2)CC1c1cccs1 (stereo not given) | 17 | 17 | 2.1 | 3 | -3 | -8 | 2.6 | 31 | 3.4 | i
Cc1ccc(CNC(=O)CSCc2ccccc2F)cc1 | -3 | -1 | 1.5 | 1 | nt | -10 | 1.5 | -12 | 1.4 | i
CC(C)CCOc1ccc(C(=O)NN2C(=O)NC3(CCCCC3)C2=O)cc1 | 0 | 3 | -0.3 | 7 | -7 | -9 | 1.0 | -1 | 0.3 | i
O=CN1CCN(C(C(=O)NC2CCCC2)c2cc3c(cc2[N+](=O)[O-])OCO3)CC1 (stereo not given) | -4 | -3 | -5.1 | -7 | nt | 10 | -3.9 | 0 | 2.8 | i
CCCOC1CCCN(C(=O)c2ccc(OC3CCN(C(=O)CCOC)CC3)cc2)C1 (stereo not given) | 6 | 1 | 0.5 | -4 | -9 | -4 | -2.3 | -5 | 0.4 | i
Nc1ncnc2c1ncn2[C@@H]1O[C@H](CO)C[C@H]1O | nt | nt | nt | -2 | 5 | nt | -0.2 | 35 | -0.2 | i
COc1ccc(Cl)cc1NS(=O)(=O)c1cccc(C(=O)NC2CC2)c1 | 1 | -20 | -6.5 | -2 | 10 | nt | nt | nt | -1.7 | i
COc1ccc(-c2csc(N(CC3CCCO3)C(=O)c3ccco3)n2)cc1 (stereo not given) | nt | nt | nt | 1 | nt | 98* | 4.7 | 11 | nt | nt
CC(C)(C)c1nnc2sc(SCC(=O)NCc3ccco3)nn2c1=O | -2 | -9 | -0.4 | 3 | 39 | nt | nt | nt | 1.9 | i
COc1ccc(C(=O)NCCSc2ccccc2C)cc1 | -30 | -26 | -8.5 | nt | nt | 11 | 4.2 | -5 | -2.6 | i
O=C(CN1CCN(C(=O)C2COc3ccccc3O2)CC1)Nc1ccc(F)cc1 (stereo not given) | nt | nt | nt | 0 | -2 | 12 | -3.9 | -6 | -2.0 | i
COc1cc(OC)c(OC)cc1/C=N/N(C)c1ccccc1 | nt | nt | nt | -1 | nt | 11 | -0.8 | -2 | nt | nt
S=C1N[C@H]2CCCC[C@@H]2N1 | 17 | 13 | -0.1 | -2 | 0 | -10 | -1.1 | nt | -0.4 | i
COC(=O)N1C(=O)[C@](c2ccccc2)(C2CCCCC2)N1C(=O)OC | -5 | -7 | 0.8 | 1 | 22 | -7 | 1.3 | -21 | -5.5 | i
Cc1cc(C)n(-c2nnc(N3CCN(c4ccccc4)CC3)nn2)n1 | 2 | 5 | -1.2 | -6 | 19 | -7 | 5.9 | -3 | 16 | i
CN(CC(=O)NCCc1ccc(Cl)cc1)S(=O)(=O)c1cccs1 | 1 | 8 | 0.7 | -2 | 3 | 18 | -1.5 | 4 | 1.9 | i
CCOc1ccccc1C(=O)NCC(=O)NNC(=O)c1cccs1 | 6 | 10 | 0.0 | -3 | 1 | nt | nt | nt | 0.7 | i
COc1ccc(O[C@H]2C=C[C@@H](c3ccccc3)O[C@@H]2COC(=O)CC/C(C)=N/OC[C@@H](O)COCc2ccco2)cc1 | nt | nt | nt | 0 | nt | 15 | -1.0 | 0 | nt | nt
S=C(Nc1cccc(Cl)c1)Nc1ccccc1Oc1ccccc1 | nt | nt | nt | -2 | -4 | -29 | -6.3 | 17 | nt | nt
CC(=O)Nc1nc(C=C(Cl)Cl)cs1 | nt | nt | nt | -8 | 2 | -6 | 3.1 | -1 | nt | nt
Cc1nn(-c2ncc(C(F)(F)F)cc2Cl)c(=O)n1-c1cccc(F)c1 | 0 | 0 | -3.1 | -5 | 1 | -2 | 2.3 | -4 | -3.9 | i
COc1ccccc1NS(=O)(=O)c1cc(C(=O)NCC(C)(C)N2CCOCC2)ccc1C | 5 | 5 | -0.1 | -1 | -2 | 3 | -1.7 | -5 | 6.8 | i
Cc1cc2nc(-c3ccc(=O)[nH]c3)n(C)c2cc1C | 7 | 13 | -0.2 | -1 | 9 | 1 | 0.9 | -10 | 0.6 | i
CCc1ccc(N(C(=O)c2csnn2)C(C(=O)NC(C)(C)CC)c2cccnc2)cc1 (stereo not given) | 16 | 12 | 0.4 | 5 | 3 | 3 | 1.9 | 11 | 2.8 | i
Clc1ccc(/C=N/Nc2ccccn2)cc1 | 18 | 14 | -1.5 | -2 | -21 | -30 | 6.8 | 8 | 4.7 | i
Cc1snc(SCc2cccc(Cl)c2)c1C#N | -9 | -15 | 3.8 | -1 | -2 | 4 | -0.9 | -8 | -3.5 | i
Cn1cc(/C=C(\NC(=O)c2ccccc2Cl)C(=O)NCCCN2CCOCC2)c2ccccc21 | 6 | 13 | -0.6 | 1 | 31 | -5 | 0.9 | 11 | 1.2 | i
C[C@@H]1COC(=O)[C@@H](NC(=O)OCC2c3ccccc3-c3ccccc32)C/C=C\C[C@@H](CC(=O)N(CCO)Cc2ccccc2)C(=O)N1 | -2 | 9 | -5.8 | 70 | 2 | nt | nt | nt | -49 | i
Cc1cc(C(=O)CSc2nnc(-c3ccco3)o2)c(C)n1C | -10 | -7 | 2.3 | 5 | 9 | nt | nt | nt | -2.5 | i
COc1cc(S(=O)(=O)N2CCN(c3ccccc3F)CC2)c(OC)cc1Cl | nt | nt | nt | 8 | -16 | -6 | -2.4 | 14 | nt | nt
CC(C)Oc1ccc(CN2CCC(n3nccc3NC(=O)CCc3ccccc3)CC2)cc1 | 10 | 10 | 3.6 | 3 | -1 | -5 | 1.3 | 42 | 2.1 | i
Cc1cccc(N2CCN(C(=O)CN3C(=O)C4CC=CCC4C3=O)CC2)c1C (stereo not given) | -16 | -19 | 6.3 | -7 | 1 | -11 | -0.9 | 1 | -3.0 | i
O=C(CNCc1cccc2ccccc12)Nc1ccccc1[N+](=O)[O-] | -31* | -13* | -1.7* | 2 | -4 | 33 | 1.3 | -3 | 5.2 | i
COc1ccc(/C=C(\C#N)C(=O)Nc2cccc3ncccc23)cc1OC | 12 | -7 | -5.3 | -4 | nt | 10 | 50* | -1 | 5.0 | i
CCc1ccc2c(c1)C(c1ccc([N+](=O)[O-])cc1)=NNC(c1ccc(C)cc1)=N2 | 16 | 13 | 3.1 | 10 | 1 | -16 | 0.4 | 8 | -1.6 | i
C=CCn1c(SCc2nc(N)nc(N3CCCCC3)n2)nnc1-c1ccco1 | nt | nt | nt | 2 | 5 | 29 | 1.0 | -28 | nt | nt
O=C(COC(=O)c1ccccc1NCCO)NCc1cccs1 | 7 | 11 | -0.1 | 1 | -2 | -2 | 6.2 | -11 | -24 | i
CC(Sc1nnnn1C)C(=O)Nc1ccc(N2CCOCC2)cc1 (stereo not given) | nt | nt | nt | 3 | 25 | 2 | 4.3 | -6 | nt | nt
COC(=O)c1c(C)[nH]c(-c2csc(N)n2)c1C | 24 | 6 | 2.1 | 22 | 47 | 1 | 8.1 | -80 | 7.4 | nt
Cn1cccc1/C=N/n1c(-c2ccc(Cl)cc2Cl)n[nH]c1=S | nt | nt | nt | 2 | 97* | -6 | -0.7 | -10 | nt | nt
O=C1c2ccccc2C(Nc2ccc3c(c2)OCCO3)N1Cc1ccco1 (stereo not given) | -1 | -1 | 0.9 | 4 | 58 | 3 | -1.5 | -7 | 6.4 | i
Cc1ncc(CN2CCCC(C(=O)Nc3ccc(-c4ccco4)cc3)C2)n1C (stereo not given) | -2 | -4 | 0.4 | -3 | nt | 48 | -1.6 | 1 | 6.2 | i
COc1ccc(OCc2nnc(SCC(=O)Nc3cccc(Cl)c3)o2)cc1 | -4 | -2 | 3.9 | -3 | -4 | 0 | -0.6 | -8 | 3.3 | i
COc1cccc(NC(=O)COC(=O)c2c(NC(C)=O)sc(C)c2C)c1 | -12 | 4 | 4.9 | 2 | nt | nt | nt | nt | 2.4 | i
Brc1ccc(-c2cnco2)cc1 | nt | nt | nt | 2 | -4 | 17 | -2.6 | -9 | -1.5 | i
N#CC1=C(N)NC(SCc2ccc(Br)cc2)=C(C#N)C12CCCCC2 | nt | nt | nt | -1 | -20 | -2 | 0.9 | 66* | nt | nt
COc1cccc(N2CCN(C(=O)c3cc4c(=O)n(Cc5ccccc5)ccc4nc3C)CC2)c1 | -5 | -9 | 0.2 | 3 | 9 | -1 | 16* | 5 | -0.2 | i
CCC(=O)Oc1ccc(C/C(=N\O)c2ccc(O)cc2O)o1 | -9 | -15 | 0.8 | nt | 98* | -7 | 3.6 | 19 | 3.7 | i
Cc1ccccc1NC(=O)NCCN1C(=O)C2C3C=CC(C3)C2C1=O (stereo not given) | 9 | 5 | 0.7 | -7 | nt | -3 | 3.9 | 0 | 6.7 | i
Cc1ccc([N+](=O)[O-])cc1S(=O)(=O)N1CCC(C)CC1 | -13 | -7 | 2.8 | nt | -24 | -20 | 0.7 | -3 | 7.5 | i

As a short view, eight of the compounds above.
SMILES | rRNA inh HTS | rRNA inh HTS OD600 | rRNA inh HTS RFP | Beta cell apopt | ALR inh | Calb FLC | RanGTP-Imp inh | T cruzi inh | AF4-AF9 inh | FGF22 binding
COc1ccc(OCc2nnc(SCC(=O)Nc3cccc(Cl)c3)o2)cc1 | -4 | -2 | 3.9 | -3 | -4 | 0 | -0.6 | -8 | 3.3 | i
COc1cccc(NC(=O)COC(=O)c2c(NC(C)=O)sc(C)c2C)c1 | -12 | 4 | 4.9 | 2 | nt | nt | nt | nt | 2.4 | i
Brc1ccc(-c2cnco2)cc1 | nt | nt | nt | 2 | -4 | 17 | -2.6 | -9 | -1.5 | i
N#CC1=C(N)NC(SCc2ccc(Br)cc2)=C(C#N)C12CCCCC2 | nt | nt | nt | -1 | -20 | -2 | 0.9 | 66* | nt | nt
COc1cccc(N2CCN(C(=O)c3cc4c(=O)n(Cc5ccccc5)ccc4nc3C)CC2)c1 | -5 | -9 | 0.2 | 3 | 9 | -1 | 16* | 5 | -0.2 | i
CCC(=O)Oc1ccc(C/C(=N\O)c2ccc(O)cc2O)o1 | -9 | -15 | 0.8 | nt | 98* | -7 | 3.6 | 19 | 3.7 | i
Cc1ccccc1NC(=O)NCCN1C(=O)C2C3C=CC(C3)C2C1=O (stereo not given) | 9 | 5 | 0.7 | -7 | nt | -3 | 3.9 | 0 | 6.7 | i
Cc1ccc([N+](=O)[O-])cc1S(=O)(=O)N1CCC(C)CC1 | -13 | -7 | 2.8 | nt | -24 | -20 | 0.7 | -3 | 7.5 | i

(next part)
SMILES | rRNA inh HTS | rRNA inh HTS OD600 | rRNA inh HTS RFP | Beta cell apopt | ALR inh | Calb FLC | RanGTP-Imp inh | T cruzi inh | AF4-AF9 inh | FGF22 binding
Cc1cc(C(=O)NCC(=O)OCC(=O)N(C2CCCCC2)C2CCCCC2)ccc1[N+](=O)[O-] | nt | nt | nt | -1 | -21 | 0 | -1.6 | -5 | nt | nt
Cc1ccc(C)c(S(=O)(=O)N2CCN(CC(=O)Nc3ccc([N+](=O)[O-])cc3)CC2)c1 | 10 | 4 | 1.5 | -1 | -6 | 1 | -1.9 | 11 | -1.9 | i
CC(CC(=O)O)CC(=O)N1CCN(S(=O)(=O)c2cccs2)CC1 (stereo not given) | 10 | 7 | 1.0 | 0 | -2 | 13 | -0.8 | 3 | 1.0 | i
COc1ccc(S(=O)(=O)NCCc2ccccn2)cc1 | 9 | 15 | 0.4 | -4 | 0 | nt | nt | nt | -0.1 | i
